Source: PubChem
VDR inh – inhibitors of human vitamin D receptor; VDR-SRC2-3 peptide fluorescence polarization, 2 h; Potency, µM, inactives show max response, negative = inhibition, usual class: inhibitors; 0.93% of 400,000 active; AID 504847; active = well fitted inhibition curve with a large enough effect; inconclusive = small, poorly fitted or top-dose-only effect, or another doubt; inactive = no such curve, though single readings can be large or run the other way; also: series mostly up to about 120 µM
Target sequence (P11473 whole entry, looked up): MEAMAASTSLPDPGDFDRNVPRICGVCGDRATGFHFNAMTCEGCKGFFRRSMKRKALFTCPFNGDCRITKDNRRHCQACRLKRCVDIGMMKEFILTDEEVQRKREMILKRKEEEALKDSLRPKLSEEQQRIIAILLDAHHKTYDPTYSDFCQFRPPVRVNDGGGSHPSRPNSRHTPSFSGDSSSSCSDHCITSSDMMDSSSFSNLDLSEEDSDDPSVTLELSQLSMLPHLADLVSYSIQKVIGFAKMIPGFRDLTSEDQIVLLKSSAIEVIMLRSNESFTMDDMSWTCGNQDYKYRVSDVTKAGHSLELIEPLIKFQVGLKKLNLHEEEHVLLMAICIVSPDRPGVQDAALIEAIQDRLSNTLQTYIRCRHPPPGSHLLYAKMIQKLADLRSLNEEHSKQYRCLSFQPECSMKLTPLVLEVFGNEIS
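VDR–SRC2-3 interaction, FP format. Cmpds 23 nl via pintool, brief spin, 2 h ambient incubation.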
Numbers without * were called inactive; ? = inconclusive; [ ] = dose if it differs, or a comment. % is scaled to controls: 0 for no effect and ±100 for the full control effect; potency is read from the fitted curve at half-maximal effect. The list is partial, so the mix of outcomes need not match the whole.

SMILES	VDR inh
CCOc1ccc(CNC(=O)CCCn2c(=O)c3cccn3c3ccccc32)cc1	0%
O=C(CCl)Nc1ccc(Oc2cnc3ccccc3n2)cc1	-10%
Cc1ccc(N(CC(=O)Nc2ccc(C)c(F)c2)S(=O)(=O)c2c(C)n[nH]c2C)cc1	-18%
COC(=O)c1cccc(NC(=O)CSc2nnnn2C)c1	7%
Cc1cc(Cl)ccc1OCC(=O)Nc1cccc(S(=O)(=O)N2CCCC2)c1	-10%
CCN=C1SC(CC(=O)NC(C)C)C(=O)N1CC (stereo not given)	-8%
O=C(Nc1ccccc1Cl)c1cccc(COc2cc(Cl)ccc2Cl)c1	-2%
Cc1ccc(NCC(=O)Nc2cccc(S(=O)(=O)N(C)C)c2)c(Cl)c1	2%
O=c1ccc(S(=O)(=O)N2CCC(Cc3ccccc3)CC2)c[nH]1	11%
O=C(c1cc(-c2cccnc2)nc2ccccc12)N1CCN(S(=O)(=O)c2cccs2)CC1	-3%
Cc1ccc(C)c(SCC(=O)N(C)CC(=O)Nc2ccc(N3CCOCC3)cc2)c1	6%
CC1(C)C2CCC1(C)C(OC(=O)C[n+]1ccccc1)C2 (stereo not given)	22µM*
CC(=O)Nc1sc(C)c(C)c1C(=O)OCC(=O)Nc1cccc(C)c1	15%
Fc1ccc(-c2nnc(NC3=NCCCCC3)o2)cc1	8%
CCOc1ccccc1CNS(=O)(=O)c1ccc2[nH]c(=O)ccc2c1	-5%
CC1(C)OC(=O)C(=NNc2ccc(C(=O)O)cc2)C(=O)O1	35%[activator]
CN(Cc1nc2ccccc2c(=O)[nH]1)C(=O)c1ccccc1OCc1ccc(Cl)cc1	13%
O=C(c1cc2ccccc2oc1=O)N1CCCCCCC1	4%
COc1ccc2[nH]c(=O)c(CN(C(=O)c3ccncc3)C(C)(C)C)cc2c1	4%
Cc1ccc(C2=NN(C(=O)COc3ncnc4ccccc34)C(c3ccco3)C2)cc1 (stereo not given)	-14%
Cc1cc(C)n2nc(-c3sccc3-n3c(C)ccc3C)cc2n1	-1%
Cc1ccc(NC(=O)CN(C)C(=O)COC(=O)CCS(=O)(=O)c2ccc(C)cc2)cc1	15%
O=C(CC1CS(=O)(=O)CC1CC(=O)Nc1ccc2c(c1)OCCO2)Nc1ccc2c(c1)OCCO2 (stereo not given)	?
O=C(COc1ccc(Br)cc1Br)NC1CCS(=O)(=O)C1 (stereo not given)	-17%
Cc1ccnn1CC(=O)N/N=C/c1cn[nH]c1-c1ccc(F)cc1	-2%
CN(NS(C)(=O)=O)c1ncc(C(F)(F)F)cc1Cl	-13%
Cc1ccc(C(=O)CSc2nnc(-c3ccco3)n2C)cc1	50µM*
CCOC(=O)c1c(NC(=O)c2nn(CC)cc2Br)c(C#N)cn1-c1ccccc1	6%
COc1ccc2nc(NC3=NC(c4ccccc4)CC(=O)N3)nc(C)c2c1 (stereo not given)	-6%
COC(=O)c1ccc(CNC(=O)c2cc(COc3cncc(Cl)c3)on2)cc1	-3%
CCCCn1c(=O)c(CCC(=O)OCC(=O)NC(C)c2ccccc2)nc2ccccc21 (stereo not given)	-16%
COc1ccc(CCNC(=O)CSc2nc(N)c3c(C)c(C)oc3n2)cc1OC	10%
COC(=O)C(CC(=O)c1ccc(Br)cc1)n1nc(C)cc1C (stereo not given)	?
CCC(=O)Nc1cccc(C(=O)/C=C/c2ccc(F)cc2)c1	?
CCOC(=O)c1sc2nc(CC(=O)OC)nc(N3CCN(c4ccccn4)CC3)c2c1C	12%
CCn1c(=O)cc(SCC(=O)NCCc2cc(OC)ccc2OC)c2ccccc21	-9%
CC1CCCC(C)N1CCCNC(=O)Cn1ncc2c([nH]c3ccccc32)c1=O (stereo not given)	-16%
O=C(c1ccccc1)c1nnc(-c2ccncc2)o1	0%
Cc1nc(NC(=O)Nc2ccc(Cl)cc2)sc1C	16%
O=C(NC1CCCCC1)C1CCN(c2nccs2)CC1	?
O=C1COc2ccc(C(=O)COC(=O)C3CC(O)CN3S(=O)(=O)c3ccc(Cl)cc3)cc2N1 (stereo not given)	-8%
O=C(Nc1cccc(C(F)(F)F)c1)c1ccc2nc(N3C(=O)CCC3=O)sc2c1	-5%
CC(C)(C)c1ccc(C(=O)NCCC(=O)Nc2cc(Cl)ccc2N2CCOCC2)cc1	2%
COc1ccc(/C=C/C2=NC(=C\N(C)C)/C(=O)O2)cc1	-7%
COc1ccccc1OCCNC(=O)C(CCSC)NC(=O)c1ccccc1Cl (stereo not given)	-9%
CC(NC(=O)c1ccccc1)C(=O)N/N=C/c1cccc([N+](=O)[O-])c1 (stereo not given)	14%
O=C(NC(=S)NCC1CCCO1)c1ccccc1F (stereo not given)	-6%
Cc1ccc(N2C(=O)CC(N3CCN/C3=C3\CC/C(=C\c4ccccc4)C3=O)C2=O)cc1 (stereo not given)	3%
Cc1ccc(Cl)cc1N1CCN(C(=O)CN2C(=O)COc3ccc(S(=O)(=O)N4CCOCC4)cc32)CC1	1%
COc1cc(C(=O)Nc2ccccc2C(=O)NCc2cccnc2)cc(OC)c1OC	-13%
Cc1ccc([C@H]2C(C(=O)O)=CC[C@@H](c3ccc(Cl)cc3)N2S(=O)(=O)c2ccccc2C)cc1	-26%
COc1cccc(OC)c1C(=O)OCC(=O)NC1CCCCCC1	-20%
Cc1ccc(-n2nc3c(c2NC(=O)C(C)C)CS(=O)(=O)C3)cc1	-10%
O=C(NC(CC(=O)N1CCN(c2ccccc2O)CC1)c1ccccc1)c1ccccc1Cl (stereo not given)	-19%
Cc1ccc2nc(-c3ccccc3)cc(C(=O)NNC(=O)c3csc(N4CCOCC4)n3)c2c1	-17%
CC(SCc1ccc(C(=O)O)o1)c1ccc(C(=O)O)o1 (stereo not given)	-1%
COc1ccccc1N1CCN(C(=O)c2cc3cc(Br)ccc3oc2=O)CC1	-13%
CC[C@]12c3[nH]c4ccc(OC)cc4c3CCN1C(=O)C(CC(=O)NC(C)(C)C)C[C@@H]2C(=O)N1CCN(C(=O)c2ccco2)CC1 (stereo not given in full)	4%
Cc1cc(Cl)ccc1NC(=O)CCCN1C(=O)CCC1=O	12%
Cc1ccc(CSc2cn(CC(=O)N3CCCCCC3)c3ccccc23)cc1	0%

Sorted by the number under VDR inh (rising): 3 of the compounds above
SMILES	VDR inh
CCOc1ccccc1CNS(=O)(=O)c1ccc2[nH]c(=O)ccc2c1	-5%
Cc1ccc(CSc2cn(CC(=O)N3CCCCCC3)c3ccccc23)cc1	0%
CCOC(=O)c1c(NC(=O)c2nn(CC)cc2Br)c(C#N)cn1-c1ccccc1	6%

More entries:
SMILES	VDR inh
COc1cccc(CC(NC(C)=O)C(=O)NC2CCN(c3nc(C)cc(C)c3C#N)CC2)c1OC (stereo not given)	-21%
COc1ccc(-n2c(C)cc(C(=O)COC(=O)c3ccc(O)cc3O)c2C)cc1	5%
CCC1=C2CC[C@H]3C(=O)N(CC)C(=O)[C@H]3[C@H]2[C@@]2(Cc3ccccc3)C(=NCc3ccccc3)OC(=O)N2C1=O	-22%
CN1CCN(Cn2cc(/C=C/C(=O)c3ccccc3)c3ccccc32)CC1	-9%
CCc1ccccc1NC(=S)N1CCCCCC1	-23%
COc1ccc(Cl)cc1NC(=O)COC(=O)CCNC(C)=O	-1%
Cc1ccc(S(=O)(=O)NC(C(=O)Oc2ccc3ccc(=O)oc3c2)c2ccccc2)cc1 (stereo not given)	?
CCN1CCN(CC(=O)N2N=C(c3cccs3)CC2c2ccc(OC)cc2)C(=O)C1=O (stereo not given)	2%
Cc1ccc(-c2nnc(Nc3cccc(Br)c3)c3ccccc23)cc1S(=O)(=O)NCC1CCCO1 (stereo not given)	-17%
COc1cc(NC(=O)CCc2c(C)nc3c(-c4ccc(F)cc4)c(C)nn3c2C)cc(OC)c1OC	-14%
CCc1cc(S(=O)(=O)N2CCN(C(=O)c3ccco3)CC2)ccc1OC	-2%
Cc1nc(-c2ccccc2)sc1C(=O)O	3%
NC(=O)C1CCN(c2c([N+](=O)[O-])cc(C(F)(F)F)cc2[N+](=O)[O-])CC1	6%
Cc1onc(C(=O)Nc2c(C)n(C)n(-c3ccccc3)c2=O)c1[N+](=O)[O-]	14%
COc1ccc(N2C(=O)CC(N3CCN(S(=O)(=O)c4ccc(Cl)cc4)CC3)C2=O)cc1 (stereo not given)	2%
O=C(COc1cccc2ccccc12)Nc1cc(Cl)ccc1C(=O)O	-30%
COC(=O)c1c(-c2cccs2)csc1NC(=O)c1cccnc1	-10%
CC1CN(S(=O)(=O)c2ccc(C(=O)Nc3nnc(-c4ccco4)o3)cc2)CC(C)O1 (stereo not given)	4%
COc1cccc(/C=c2\s/c(=C/C(=O)c3ccc(C)cc3)[nH]c2=O)c1OC	-6%
COc1ccc(OC)c(S(=O)(=O)N2CCC(C(=O)NCCc3ccccc3)CC2)c1	-5%
O=C(CSc1cn(CC(=O)N2CCCCC2)c2ccccc12)NCc1ccccc1Cl	0%
COc1cccc(Cn2c(=O)n(-c3cccc(Cl)c3)c(=O)c3c4c(sc32)CN(C(C)=O)CC4)c1	-2%
CCN1CCN(c2ncc3c(n2)CCN(Cc2ccc(OC(C)C)cc2)C3)CC1	-1%
CSc1ccc(CCNC(=O)c2cc(-c3ccccc3)c(N3CCOCC3)s2)cc1	23%
O=C(CCc1ccccc1)N1CCCN(C(=O)CCc2ccccc2)CC1	-4%
COc1ccc(C(=O)Oc2ccc(C(C)=O)cc2)c(OC)c1	13%
c1ccc2sc(NC3=NCN(C4CCCCCC4)CN3)nc2c1	2%
CC1=NN(c2cccc(Cl)c2)C(=O)C12CC(C)=C(C)CS2 (stereo not given)	?
CCS(=O)(=O)c1ncc(Cl)c(C(=O)Nc2ccc(S(=O)(=O)N(C)c3ccccc3)cc2)n1	?
COc1ccc(CCN(C)CC(O)COc2c(C)ccc(C)c2C)cc1OC (stereo not given)	24%

The list goes on; the last two above are carried over.
SMILES	VDR inh
CCS(=O)(=O)c1ncc(Cl)c(C(=O)Nc2ccc(S(=O)(=O)N(C)c3ccccc3)cc2)n1	?
COc1ccc(CCN(C)CC(O)COc2c(C)ccc(C)c2C)cc1OC (stereo not given)	24%
CCOC(=O)c1[nH]c(C)c(CCC(=O)NCc2ccccc2Cl)c1C	16%
Cc1cc(C)c(NC(=O)CN(C)S(=O)(=O)c2ccc3c(c2)n(C)c(=O)c(=O)n3C)c(C)c1	-11%
CCOC(=O)N1CCC(NC(=O)CCC(=O)N2CCOc3ccc(Cl)cc32)CC1	-9%
O=C(Nc1cccc(O)c1)c1cc(-c2ccccc2Cl)on1	-4%
Cc1ccccc1C(=O)NC1CCN(CC(=O)Nc2ccc(Br)cc2)CC1	-10%
O=C(Oc1cc2oc(=O)c3c(c2cc1Cl)CCCC3)c1cccs1	1%
CC(C)CCNc1c(-c2cccs2)nc2ccccn12	7%
CCN(c1ccc(NC(=O)COC(=O)CCC(=O)c2ccc(F)cc2)cc1)C(C)C	?
COc1cccc(CNC(=O)CCC2CCCN(C/C=C/c3ccccc3OC)C2)c1 (stereo not given)	-8%
CCCCN1C(=O)Nc2ccccc2S1=O (stereo not given)	23%
Cc1ccccc1NC(=O)NNC(=O)OC(C)(C)C	15%
Oc1ccc(N2CCN(c3nc(-c4cccs4)nc4ccccc34)CC2)cc1	-3%
Cc1cc(Cl)c(S(=O)(=O)Nc2ccccn2)cc1OCC(N)=O	6%
COC(=O)c1ccc(OS(=O)(=O)c2ccc(NC(C)=O)cc2)cc1	-22%
O=C(CCNS(=O)(=O)c1ccc2[nH]c(=O)oc2c1)Nc1ccccc1	-15%
CC(C)N(CCCNC(=O)Cn1c(=O)c2cccn2c2ccc(F)cc21)Cc1ccccc1	-6%
CN(CC(O)COCc1ccc2c(c1)OCO2)C1CCCCC1 (stereo not given)	-24%
CCOC(=O)C1=C(C)NC(=O)C1CC(=O)O (stereo not given)	-10%
COc1cc2c(cc1OC)CC1(CCCCC1)N=C2	7%
CC(c1ccccn1)N(CCN(C)C)C(=S)Nc1cccc(F)c1 (stereo not given)	-3%
O=C(c1ccc(Br)o1)N1CCC(Cc2ccccc2)CC1	10%
O=C(NCCCN1CCN(c2ccccc2F)CC1)C1CCC(=O)N1C1CCCC1 (stereo not given)	-16%
COc1ccc(CN(C)C(=O)c2ccc3c(=O)n4c(nc3c2)CCC4)cc1	-2%
Cc1noc(C)c1S(=O)(=O)N1CCC(C(=O)NC2CCN(Cc3ccccc3)CC2)CC1	7%
COc1cccc(C2=CC(c3ccccc3O)NC(C)(C)N2)c1 (stereo not given)	-19%
CSCc1c(C(=O)OCC(=O)NC2CCCCC2)oc2ccccc12	3%

Entries above containing fluorine, in the order listed:
SMILES	VDR inh
Cc1ccc(N(CC(=O)Nc2ccc(C)c(F)c2)S(=O)(=O)c2c(C)n[nH]c2C)cc1	-18%
Fc1ccc(-c2nnc(NC3=NCCCCC3)o2)cc1	8%
Cc1ccnn1CC(=O)N/N=C/c1cn[nH]c1-c1ccc(F)cc1	-2%
CN(NS(C)(=O)=O)c1ncc(C(F)(F)F)cc1Cl	-13%
CCC(=O)Nc1cccc(C(=O)/C=C/c2ccc(F)cc2)c1	?
O=C(Nc1cccc(C(F)(F)F)c1)c1ccc2nc(N3C(=O)CCC3=O)sc2c1	-5%
O=C(NC(=S)NCC1CCCO1)c1ccccc1F (stereo not given)	-6%
COc1cc(NC(=O)CCc2c(C)nc3c(-c4ccc(F)cc4)c(C)nn3c2C)cc(OC)c1OC	-14%
NC(=O)C1CCN(c2c([N+](=O)[O-])cc(C(F)(F)F)cc2[N+](=O)[O-])CC1	6%
CCN(c1ccc(NC(=O)COC(=O)CCC(=O)c2ccc(F)cc2)cc1)C(C)C	?
CC(C)N(CCCNC(=O)Cn1c(=O)c2cccn2c2ccc(F)cc21)Cc1ccccc1	-6%
CC(c1ccccn1)N(CCN(C)C)C(=S)Nc1cccc(F)c1 (stereo not given)	-3%
O=C(NCCCN1CCN(c2ccccc2F)CC1)C1CCC(=O)N1C1CCCC1 (stereo not given)	-16%
